Mtb H37Rv: Mycobacterium tuberculosis H37Rv growth inhibition, cell based, confirmatory dose response (AID 1949); M. tuberculosis H37Rv growth inhibition; inhibition, % at 10 µg/mL; hits with a dose series show IC50 in µg/mL; most inactive calls were filed without a number and no value below 0 was filed; 100,000 tested, 1.6% active;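 active means confirmed in a dose series; inconclusive means about 50% or more but not retested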;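 further: bacteria grown 7 days with compound before Alamar blue readout; 0% = untreated bacteria and 100% = reference antibiotic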
An asterisk follows results filed as active; i = inactive; ? = inconclusive. Some of the compounds tested (hit frequency here may not be typical).

SMILES	Mtb H37Rv
Nn1c(SCC(=O)Nc2ccccc2F)nc2ccccc2c1=O	i
CCC(=O)Nc1ccc(C(=O)Nc2nncs2)cc1	i
Cc1ccccc1OCC(=O)Nc1sc(C)c(C)c1C(N)=O	i
CCc1cccc(C)c1NC(=O)CN(C)S(=O)(=O)c1ccccc1	i
CC(C)C(CCC(=O)Nc1ccccc1Cl)C(=O)O (centres undefined)	i
Cn1cnnc1SCC(C)(C)NS(=O)(=O)c1ccccc1	i
Cc1ccc(Nc2nc3ccccc3n3cnnc23)cc1F	0.1%
CC(C)(C)c1ccc(C(=O)N2CCN(c3ccc([N+](=O)[O-])c(NCC4CCCO4)c3)CC2)cc1 (centres undefined)	2.6%
COc1ccc(NC(=S)NNC(=O)Cc2cccn2C)cc1OC	i
CCc1cccc(CC)c1NC(=O)CN(c1ccc(OC)cc1)S(=O)(=O)c1ccc(C)c([N+](=O)[O-])c1	i
CCCCNC(=O)Cc1coc2ccc3ccccc3c12	i
COc1ccc(NS(=O)(=O)c2ccc(NC(=O)Nc3ccc(Cl)cc3)cc2)cc1	i
O=C(Cn1nnc2ccccc2c1=O)c1cccs1	i
Brc1ccc(OCc2nnnn2-c2ccccc2)cc1	i
COc1cccc(OCCCCN2CCCc3ccccc32)c1	i
CCOC(=O)N1CCN(C(=O)C(CC)c2ccccc2)CC1 (centres undefined)	i
CCOC(=O)c1c(NC(=O)Cc2ccc(Cl)cc2)sc(C(=O)N(C)C)c1C	i
O=C(COc1ccc(Cl)cc1)Nc1ncc(Cc2ccc(Br)cc2)s1	i
CC(C)(C)c1ccc(OCc2nnc(SCc3nc4ccccc4[nH]3)n2N)cc1	i
CCN1CCN(C(=O)c2cnn3c(C(F)F)cc(-c4ccc(OC)cc4)nc23)CC1	i
CC(C)NC(=O)c1ccc(CN(c2ccccc2)S(C)(=O)=O)cc1	i
CCOc1ccc(N2C(=O)CC(N3CCC(O)(c4ccc(Cl)cc4)CC3)C2=O)cc1 (centres undefined)	i
CC(=O)c1ccc(NC(=S)N2CCC(C(N)=O)(N3CCCCC3)CC2)cc1	i
O=C(N1CCOCC1)N(CCN1CCOCC1)Cc1cccc(Cl)c1	i
CCC1(C)CC(C(CC#N)c2ccc(C)cc2)CCO1 (centres undefined)	i
CC(C)Cn1c(SCC(=O)Nc2ccccc2F)nnc1-c1ccc(Cl)cc1	i
COC(=O)c1ccccc1OCCCOc1ccc(C=O)cc1OC	i
CCOC(=O)c1ccc(NC(=O)c2c(NC(=O)CN3CCCCCC3)sc3c2CCC3)cc1	i
CC(CCc1ccccc1)NC(=O)CSc1nc(N)c2c3c(sc2n1)COC(C)(C)C3 (centres undefined)	i
O=C(Nc1ccccc1Br)C1CCN(S(=O)(=O)c2cc(Cl)ccc2Cl)CC1	i
Cc1nnc(SCc2nnnn2-c2ccccc2)[nH]c1=O	0.8%
C=CCn1c(SCC(=O)Nc2cc(Cl)ccc2C)nnc1-c1ccco1	i
Cc1ccc(C(=O)Nc2ccccc2N2CCCCC2)cc1C	20.3%
N#CCNC(=O)c1cccc(I)c1	i
Cn1c(=O)c2c3c(sc2n2c(SCc4ccc(Cl)c(Cl)c4)nnc12)CCCC3	i
COc1ccc(C(C)C)cc1S(=O)(=O)Nc1ccc(F)cc1	i
CC1(C)CC(NC(=O)C23CCC(C)(c4nc5ccccc5nc42)C3(C)C)CC(C)(C)N1 (centres undefined)	i
CC1=C(C(=O)OC(C)C)C(c2ccccc2[N+](=O)[O-])CC(=O)N1 (centres undefined)	i
O=C(NCCN1CCN(c2ccc([N+](=O)[O-])cc2)CC1)Nc1cccc(Cl)c1	i
COc1ccc(Nc2nc(N3CCOCC3)nc(N3CCOCC3)n2)c(OC)c1	i
Cn1cnnc1SCC(=O)Nc1ccc(Br)cc1C(F)(F)F	8.2%
CN1CCN(CCCOc2ccc(Cl)c(Cl)c2)CC1	i
CC(C)C(NC(=O)c1ccccc1)c1nnc(SCC(=O)Nc2ccc(Br)cc2F)n1C (centres undefined)	i
Cc1ccc(Cl)cc1NC(=O)CSc1nnc(-c2ccc([N+](=O)[O-])cc2)n1-c1ccccc1	0.9%
CCN1CCN(CC(O)COC(C)C)CC1 (centres undefined)	i
O=C(CSc1nc2ccccc2c(=O)[nH]1)Nc1ccccc1	3.1%
COC(=O)c1ccc(Cl)c(NC(=O)CN2CCN(c3ccccc3)CC2)c1	i
O=c1[nH]c(=S)[nH]c2sc3c(c12)CCCCCCCCCC3	i
O=C(c1ccc(NS(=O)(=O)c2cccc(F)c2)cc1)N1CCCCCC1	i
CC(C)C(NC(=O)c1ccc(-c2ccccc2)cc1)C(C)C	i
Cc1cc(C)c(C)c(S(=O)(=O)NCCC(=O)O)c1C	i
O=C(Nc1cccc(O)c1)c1ccc(Br)cc1	i
O=C(CSc1nnc(-c2ccccc2Br)o1)c1cc2ccccc2oc1=O	i
CCc1ccc(NC(=O)CSc2nnc(Cc3cccc4ccccc34)n2C)cc1	i
Cc1cc(OC(C)C(=O)NC2CCS(=O)(=O)C2)cc(C)c1Cl (centres undefined)	i
CCOC(=O)c1sc2ncnc(Nc3ccc(C)cc3)c2c1C	i
CCN(CC)CCS(=O)c1ccccc1 (centres undefined)	i
CCOc1cccc(CN(C(C)=O)c2ccc3[nH]c(=O)[nH]c3c2)c1OCc1ccccc1	i
Cc1ccc(C)c(OCCCC(=O)Nc2cccc(C)c2C)c1	i
COC(=O)C1=C(C)N(C)C(C)=C(C(=O)OC)C1c1cc([N+](=O)[O-])ccc1Cl	4.6%

The listing continues.
SMILES	Mtb H37Rv
COc1ccc(C)cc1NC(=S)Nc1cccc(Cl)c1Cl	i
COCc1ccc(C(=O)Nc2ccc(C(=O)O)cc2)o1	i
COc1cccc(CN2CCC(C(=O)N(CCc3ccccc3)Cc3ccccc3)CC2)c1OC	i
CCCOc1cccc(C(=O)Nc2cc(NC(=O)CC)ccc2Cl)c1	i
O=C(Cc1cccc2ccccc12)Nc1ccc(-c2nc3ccccc3o2)c(O)c1	i
O=C(O)CSc1c[nH]c2ccccc12	i
Cc1cc(C)nc(Nc2n[nH]c(-c3ccc(Cl)cc3Cl)n2)n1	0.4%
Cc1cc(Br)cc(C)c1OCC(=O)N1CCCCC1	i
O=S(=O)(NCC1CCCO1)c1ccc(Cl)c(C(F)(F)F)c1 (centres undefined)	i
CC(C)NC(=O)CCCC(=O)NC(C)C	i
O=C(CN(c1cccc(Cl)c1)S(=O)(=O)c1ccc(Cl)cc1)Nc1ccc(F)cc1F	i
Cc1nn(Cc2ccccc2)c(C)c1-c1cccc([N+](=O)[O-])c1	i
O=C(CSc1ncnc2scc(-c3ccccc3)c12)c1cccc([N+](=O)[O-])c1	i
O=[N+]([O-])c1cccc(-c2cn(-c3ccccc3NCc3ccccc3)cn2)c1	9.8%
Cc1ccc(N(CC(=O)N2CCN(Cc3ccc4c(c3)OCO4)CC2)S(C)(=O)=O)cc1C	i
CC1(C)CC(=O)C2=C(C1)N(c1ccc(Cl)c(Cl)c1)C(=O)C2(O)C(F)(F)F (centres undefined)	i
CCOC(=O)c1c(NC(=O)CSc2nnc(-c3ccco3)o2)sc2c1CCCC2	i
CN(c1ccccc1)S(=O)(=O)c1cc(Cl)c(Cl)cc1Cl	5.4%
Cc1sc2ncnc(SCC(=O)Nc3cccc(C(F)(F)F)c3)c2c1C	i
CCCCn1nnc(NC(=O)c2cc3ccccc3o2)n1	0.0%

A draw from above in order of count of non-hydrogen atoms, low to high.
SMILES	Mtb H37Rv
Cc1cc(C)nc(Nc2n[nH]c(-c3ccc(Cl)cc3Cl)n2)n1	0.4%
CCCOc1cccc(C(=O)Nc2cc(NC(=O)CC)ccc2Cl)c1	i
O=C(Cc1cccc2ccccc12)Nc1ccc(-c2nc3ccccc3o2)c(O)c1	i

New compounds follow.
SMILES	Mtb H37Rv
C=C=CSc1nnnn1-c1ccc(Cl)cc1	i
CS(=O)(=O)N1N=C(c2ccc(Cl)cc2)CC1c1cccs1 (centres undefined)	i
O=S(=O)(Nc1ccc(O)c(Cl)c1)c1ccc(F)cc1	i
C=CCc1cccc2cc(C(=O)NCCCN3CCOCC3)c(=O)oc12	i
CCOc1cccc(C(=O)NN2C(=O)c3ccccc3C2=O)c1	i
C=CCNC(=S)Nc1ccc(C)cc1OC(F)F	i
Cn1c(CC(=O)Nc2ccccc2)nnc1SCC(=O)Nc1nc(-c2ccc(Cl)cc2)cs1	i
Cc1cccc(N(CC(=O)Nc2cccc([N+](=O)[O-])c2)S(C)(=O)=O)c1C	i
Cc1cc(C)c(C)c(OCC(=O)Nc2ccc3c(c2)OCCO3)c1	i
CC(NS(=O)(=O)c1ccc(CCC(=O)NCc2cccnc2)cc1)c1ccccc1 (centres undefined)	i
CCN(CC)S(=O)(=O)c1ccc2nc(NC(=O)c3cccs3)sc2c1	i
Cc1c(NC(=O)C(Cc2ccccc2)N2C(=O)C3C4C=CC(C5CC45)C3C2=O)ccc(Br)c1Cl (centres undefined)	3.2%
Cc1ccc(Sc2ncnc(N)c2[N+](=O)[O-])cc1	i
COC(=O)CN1C(=O)C(O)(CC(=O)c2ccc(C)o2)c2ccccc21 (centres undefined)	i
O=C(Nc1ccccc1)C(=S)N1CCCC1	i
Cc1ccc(C(C)C)c(OCC(=O)Nc2ccc(NC(=O)C(C)C)cc2)c1	i
COc1ccc(NC(=O)COc2ccc(C)cc2C)cc1Cl	i
O=C(O)CSC1c2ccccc2Oc2ccc(F)cc21 (centres undefined)	0.2%
Cc1ccc(NC(=O)CN(c2cccc(Cl)c2)S(C)(=O)=O)cc1Cl	1.3%
COc1ccccc1NC(=O)c1cc(-c2ccc(Cl)cc2Cl)nc2ccccc12	1.6%
COC(=O)C1=C(C)NC2=C(C(=O)CC(c3ccccc3Cl)C2)C1c1coc2ccc(C)cc2c1=O (centres undefined)	?
O=C(Nc1nc2c(s1)CCCC2)c1cncc(Br)c1	6.9%
Cc1ccc(N(CC(=O)NCCSc2ccccn2)S(=O)(=O)c2ccc(C)cc2)cc1	i
O=C(COc1ccc(Cl)cc1)Oc1ccccc1	i
Cc1ccc(Cl)cc1N1CCN(C(=O)C(=O)N2CCCCC2)CC1	i
CCCOc1ccccc1C1NC(=O)NC(C)=C1C(=O)OC(C)(C)C (centres undefined)	4.0%
COc1ccccc1C(=O)OCC(=O)c1ccccc1	5.2%
O=C(Nc1nc2nccc(-c3ccccc3)n2n1)C(Cl)(Cl)Cl	i
CS(=O)(=O)N(CC(N)=O)c1cc(Cl)ccc1Cl	i
Cc1ccc(-c2csc3ncn(CC(N)=O)c(=O)c23)cc1	i
COCc1cc(=O)[nH]c(/N=C(\N)Nc2ccc(C)cc2)n1	i
Cc1ccc(-n2nnnc2SCC(=O)Nc2cccc(Cl)c2Cl)cc1Cl	i
COc1ccccc1C1NC(=S)NC(C)=C1C(=O)Nc1cc(C)cc(C)c1 (centres undefined)	i
O=C(O)c1ccc(-c2nnn(Cc3ccccc3F)n2)cc1	i
COC(=O)C1=CN(Cc2ccc(F)cc2)C=C(C(=O)OC)C1c1ccc(O)c(OC)c1	3.0%
CCn1c(COc2cccc(C)c2)nnc1SCC(=O)Nc1cccc(C(=O)O)c1	i
CNC(=S)Nc1ccccc1Br	i
O=C(CC12CC3CC(CC(C3)C1)C2)NC(=S)Nc1c(F)cc(F)cc1Br	2.9%
Cc1c(C(=O)OCc2cccc(Br)c2)cccc1[N+](=O)[O-]	25.5%
Cc1ccc(S(=O)(=O)Nc2c(C)n(C)n(-c3ccccc3)c2=O)cc1	i
COC(=O)c1cc(C)sc1NC(=S)Nc1ccc(NS(=O)(=O)c2ccc(C)cc2)cc1	0.7%
O=S(=O)(NCC1CCN(S(=O)(=O)c2ccc(Cl)cc2)CC1)c1ccc(Cl)cc1	i
COc1cc(NC(=O)COc2ccccc2Br)c(OC)cc1Cl	i
Cn1ccnc1SCC(=O)Nc1nnc(-c2ccccc2)s1	10.0%
O=C(C1CCCCN1S(=O)(=O)c1ccc(Cl)cc1)N1CCCCCC1 (centres undefined)	i
CSc1ccccc1-n1[nH]nnc1=S	i
O=C(c1cc2c(=O)n3ccccc3nc2s1)N1CCC(Cc2ccccc2)CC1	1.3%
O=C(CSCC(=O)Nc1ccc2ccccc2c1)NCCOc1ccccc1F	20.4%
COc1ccc(C2(CNC(=O)c3ccc(NC(=O)COc4ccccc4)cc3)CCOCC2)cc1	i
c1ccc2[nH]c(CCn3c4ccccc4c4ccccc43)nc2c1	0.9%
CC(Oc1ccccc1)C(=O)Nc1c[nH]c(=O)[nH]c1=O (centres undefined)	i
O=C(Oc1ccc2c(=O)c(-c3ccccc3Cl)coc2c1)c1ccccc1Cl	23.8%
N#Cc1ccc(C(=O)Nc2ccc3oc(=O)ccc3c2)c(F)c1	i
Cc1onc(-c2c(F)cccc2Cl)c1C(=O)NC1=NCCS1	i
Clc1ccc(-c2nc(-c3ccccc3Br)no2)cc1	i
Cc1ccc(N2CCN(C(=O)N3CCOCC3)CC2)cc1Cl	i
O=c1[nH]c(CSc2nnc(-c3ccccc3)n2C2CCCCC2)nc2ccccc12	i

Of the compounds above, 15 have bromine:
SMILES	Mtb H37Rv
Brc1ccc(OCc2nnnn2-c2ccccc2)cc1	i
O=C(COc1ccc(Cl)cc1)Nc1ncc(Cc2ccc(Br)cc2)s1	i
O=C(Nc1ccccc1Br)C1CCN(S(=O)(=O)c2cc(Cl)ccc2Cl)CC1	i
Cn1cnnc1SCC(=O)Nc1ccc(Br)cc1C(F)(F)F	8.2%
CC(C)C(NC(=O)c1ccccc1)c1nnc(SCC(=O)Nc2ccc(Br)cc2F)n1C (centres undefined)	i
O=C(Nc1cccc(O)c1)c1ccc(Br)cc1	i
O=C(CSc1nnc(-c2ccccc2Br)o1)c1cc2ccccc2oc1=O	i
Cc1cc(Br)cc(C)c1OCC(=O)N1CCCCC1	i
Cc1c(NC(=O)C(Cc2ccccc2)N2C(=O)C3C4C=CC(C5CC45)C3C2=O)ccc(Br)c1Cl (centres undefined)	3.2%
O=C(Nc1nc2c(s1)CCCC2)c1cncc(Br)c1	6.9%
CNC(=S)Nc1ccccc1Br	i
O=C(CC12CC3CC(CC(C3)C1)C2)NC(=S)Nc1c(F)cc(F)cc1Br	2.9%
Cc1c(C(=O)OCc2cccc(Br)c2)cccc1[N+](=O)[O-]	25.5%
COc1cc(NC(=O)COc2ccccc2Br)c(OC)cc1Cl	i
Clc1ccc(-c2nc(-c3ccccc3Br)no2)cc1	i

Screening data deposited in PubChem BioAssay by Southern Research Institute.
